High-throughput results deposited in PubChem BioAssay by National Center for Advancing Translational Sciences (NCATS).
D2 agonist: Beta-Arrestin HTS for Positive Allosteric Modulators of the Human D2 Dopamine Receptor: Agonists. D(2) dopamine receptor (Homo sapiens), P14416. DiscoveRx PathHunter D2 beta-arrestin, luminescence, 90 min; 100% = 57 uM dopamine signal. activation, % (no concentration beside the values). 0.084% of 360,000 active. AID 624465, 2012; in the data active = activation above about 40%; inconclusive = about 15% to 40%; inactive = below about 15%; note: compound concentration not given in the record; the text of the record calls up to 30% inactive
Target sequence (P14416 whole entry, looked up): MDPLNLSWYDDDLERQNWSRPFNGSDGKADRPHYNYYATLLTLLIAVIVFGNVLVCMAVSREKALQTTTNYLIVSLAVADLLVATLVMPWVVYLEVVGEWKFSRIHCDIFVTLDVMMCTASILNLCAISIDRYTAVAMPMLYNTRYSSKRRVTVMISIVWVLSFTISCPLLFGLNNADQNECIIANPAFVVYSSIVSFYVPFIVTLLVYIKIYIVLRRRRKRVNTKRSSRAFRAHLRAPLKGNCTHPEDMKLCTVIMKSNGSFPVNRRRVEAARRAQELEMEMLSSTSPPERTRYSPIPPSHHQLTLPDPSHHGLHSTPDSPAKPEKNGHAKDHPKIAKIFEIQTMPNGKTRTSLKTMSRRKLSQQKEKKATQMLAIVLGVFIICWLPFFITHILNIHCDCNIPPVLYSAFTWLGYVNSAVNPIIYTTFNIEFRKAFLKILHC
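DiscoveRx PathHunter D2 beta-arrestin cells (2,100/well) attached overnight, then compound-stimulated 90 min at 37 C in HBSS/10 mM HEPES/0.1% Tween-20 buffer; beta-galactosidase complementation read by luminescence after 1 h at ambient temperature. Dopamine 57 uM final (EC100) as control.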
TRPML1 agonist: qHTS for Agonists of the Human Mucolipin Transient Receptor Potential 1 (TRPML1). Mucolipin-1 (Homo sapiens), Q9GZU1. 0.12% of 410,000 active. TRPML1-expressing cells, Ca2+ dye fluorescence, FDSS; host cell line not named in the record; reference of the full effect not given here. activation, % (concentration not given with the values); in the data active = activation above about 50%; inconclusive = about 30% to 50%; inactive = below about 30%; note: 0% is about no effect; the text of the record puts the active cut at 80%
Target sequence (Q9GZU1 whole entry, looked up): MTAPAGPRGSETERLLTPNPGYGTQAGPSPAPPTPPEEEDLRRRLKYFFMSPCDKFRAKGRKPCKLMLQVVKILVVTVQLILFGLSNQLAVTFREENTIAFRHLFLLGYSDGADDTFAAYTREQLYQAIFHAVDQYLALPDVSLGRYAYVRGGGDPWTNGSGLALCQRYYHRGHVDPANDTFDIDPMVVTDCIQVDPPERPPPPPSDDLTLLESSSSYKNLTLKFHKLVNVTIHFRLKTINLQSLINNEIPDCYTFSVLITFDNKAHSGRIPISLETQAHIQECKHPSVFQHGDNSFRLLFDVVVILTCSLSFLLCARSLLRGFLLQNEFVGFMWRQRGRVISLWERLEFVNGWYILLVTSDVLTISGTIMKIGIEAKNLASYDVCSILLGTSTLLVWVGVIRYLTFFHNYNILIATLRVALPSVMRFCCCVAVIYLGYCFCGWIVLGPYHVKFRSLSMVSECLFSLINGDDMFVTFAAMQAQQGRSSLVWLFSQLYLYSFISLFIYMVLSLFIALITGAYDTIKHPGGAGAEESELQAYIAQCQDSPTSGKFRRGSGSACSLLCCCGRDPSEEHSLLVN
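In this qHTS format, compounds were pin-transferred onto Ca8-dye-loaded TRPML1-DL cells induced with Tet overnight, and intracellular Ca2+ fluorescence was recorded kinetically for 110 s after a 10 s baseline. A subsequent 4uM final 54-4 (EC80) addition followed by a second 110 s read served as the antagonist phase.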
D2 PAM: Beta-Arrestin HTS for Positive Allosteric Modulators of the Human D2 Dopamine Receptor: Potentiators. 0.23% of 360,000 active. DiscoveRx D2 beta-arrestin cells, luminescence, 90 min; 100% = 57 uM dopamine signal. D(2) dopamine receptor (Homo sapiens), P14416. potentiation, % (no concentration beside the values); active = potentiation of 50% or more; inconclusive = 30% to 50%; inactive = 30% or less;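 note: compound concentration not given in the record; tested on top of an EC20 dose of dopamine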
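PathHunter D2 cells, attached overnight at 37 deg C, received compound in DMSO plus dopamine at EC20 (50 nM final) for 90 min at 37 deg C. Beta-arrestin recruitment was read as luminescence after 1 h with detection reagent at ambient temperature.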
PINK1 modulator: A Quantitative High throughput Screen to Identify Chemical Modulators of PINK1 Expression; PINK1 immunofluorescence, high-content cytometry, 24 h; Potency, µM (top dose mostly 76.6 µM), inactives show top-dose activation (PINK1 increase), hits mostly activators; 0.2% of 410,000 active; active = well fitted activation curve with a large enough effect; inconclusive = small, poorly fitted or top-dose-only effect; inactive = flat fitted curve, though single readings scatter; cell line not stated here;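 note: potency is the fitted concentration of half-maximal effect; % of control where 0% means no effect; nearly all actives have a fitted effect of over 65% in size; a mitochondrial uncoupler was the plate control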
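Stable cell line treated 24 h with compounds at 5 concentrations (CCCP controls), then fixed and immunostained for PINK1 plus nuclear and cell stains; PINK1 immunofluorescence quantified by laser-scanning microplate cytometry.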
TRPML1 blocker: qHTS for Inhibitors of the Human Mucolipin Transient Receptor Potential 1 (TRPML1) | Mucolipin-1 (Homo sapiens), Q9GZU1 | TRPML1-inducible cells, Ca2+ dye fluorescence, FDSS; hits give low values; inhibition of EC80 agonist-evoked calcium signal | activity change, negative = inhibition, % (no concentration beside the values) | 0.02% of 390,000 active; in the data active means activity change below about -50%; inconclusive means about -30% to -50%; inactive means above about -30%;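 note: stimulus is agonist 54-4 at its EC80 concentration; % is set by controls: 0 for no effect and ±100 for the full control effect; compound concentration not given in the record; the text of the record puts the active cut at -80%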
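TRPML1-DL cells, Tet-induced overnight (~16 h, 37 °C) at 1,500 cells/well, were loaded with Ca8 no-wash dye plus quencher for 45-90 min at room temperature. Compounds were pinned during FDSS kinetic reading; agonist 54-4 at EC80 (4 uM final) then added.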
Six1-Eya2 blk: qHTS Assay for Inhibitors of the Six1/Eya2 Interaction; Homeobox protein SIX1 (Homo sapiens) + Protein phosphatase EYA2 (Homo sapiens), …; AlphaScreen GST-Six1/His-Eya2 binding, biochemical; hits give low values; control for the full effect not named in the record; activity change, % (no concentration beside the values); 0.56% of 360,000 active; in the data active = activity change below about -65%; inconclusive = about -30% to -65%; inactive = above about -30%; note: % is set by controls: 0 for no effect and ±100 for the full control effect; compound concentration not given in the record
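Homogeneous AlphaScreen proximity assay pairing GST-Six1 with His-tagged Eya2 (added as 5X mix: 250 nM and 500 nM) in 50 mM Tris pH 8.0, 300 mM NaCl, 1 mM TCEP. Glutathione donor and nickel acceptor beads; 1 h, 37 °C, dark.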
Numbers without * were called inactive; ? = inconclusive; / = not tested or not shown; & = joins results of further samples; [ ] = remark or other dose.

SMILES	D2 agonist	TRPML1 agonist	D2 PAM	PINK1 modulator	TRPML1 blocker	Six1-Eya2 blk
CC(=O)N/N=C/c1cc(C)n(-c2ccc(Br)cc2)c1C	0.1	-0.3	-6	-2.0%	4	-19
COc1ccc2sc(-c3ccccc3OC)c(-c3ccc(OC)c(F)c3)c2c1	-0.9	-0.2	-6	0.8%	2	-3
CCC(C)c1ccccc1NC(=O)c1cc2cccc([N+](=O)[O-])c2[nH]1 (stereo not given)	2.6	3.0	-5	?	12	?
CCN1CCN(c2nc(-c3ccccc3)nc3ccccc23)CC1	-3.1	-0.6	-32	4.6%	-3	-6
Cc1ccc(Cl)cc1NC(=O)COC(=O)C1CCCCC1	-0.3	-0.7	-4	0.5%	?	7
COc1ccccc1CCNC(=O)CCSc1nc(-c2ccco2)cc(C(F)(F)F)n1	-1.2	2.2	-7	2.5%	25	-5
COc1ccc(C2c3[nH]c4ccccc4c3CCN2C(=O)CCC2CCCC2)cc1 (stereo not given)	/	0.7	/	0.4%	3	/
Cc1ccccc1C(=O)NCc1ccc2c(c1)CCN2C(=O)c1ccc(F)cc1	/	-0.3	/	0.5%	9	/
O=C1Oc2ccccc2C(=O)/C1=C/N1CCN(c2ccccc2F)CC1	0.4	0.7	-13	-0.6%	-4	4
CC(C)(C)NC(=O)NC(=O)CN1CCc2ccccc21	-2.6	0.3	1	1.3%	-1	2
NC(=O)c1ccc(NC(=O)COC(=O)c2cccc(Oc3ccccc3)c2)cc1	-3.8	1.2	1	-1.3%	-16	4
CN(C)c1nc(NC(C)(C)C)nc(NC(C)(C)C)n1	-16	0.4	7	7.1%	-3	6

Fetched one by one from the list above (2):
SMILES	D2 agonist	TRPML1 agonist	D2 PAM	PINK1 modulator	TRPML1 blocker	Six1-Eya2 blk
CC(C)(C)NC(=O)NC(=O)CN1CCc2ccccc21	-2.6	0.3	1	1.3%	-1	2
O=C1Oc2ccccc2C(=O)/C1=C/N1CCN(c2ccccc2F)CC1	0.4	0.7	-13	-0.6%	-4	4

Other records.
SMILES	D2 agonist	TRPML1 agonist	D2 PAM	PINK1 modulator	TRPML1 blocker	Six1-Eya2 blk
c1nnc2c3c4c(sc3ncn12)CCC4	-2.6	0.4	-7	-8.7%[38.3 µM]	-1	-5
CCOC(=O)C1CCN(Cc2ccc(-c3ccccc3)cc2)CC1	-2.6	0.7	-4	12%	-6	3
CC1=C(Nc2ccc(C(=O)O)cc2)C(=O)c2ccccc2C1=O	14	2.4	5	-3.2%	22	-15
Cn1c(CN2CCN(c3ccc(Cl)cc3)CC2)nc2ccccc21	-2.3	2.0	-21	-0.2%[38.3 µM]	-1	-5
COc1cc(/C=N\NC(=O)c2ccc(C)nc2)ccc1OC(=O)c1ccco1	1.2	1.0	3	-0.7%	-12	-9
CN(C(=O)c1ccc(NC(=O)Cc2ccc(NC(=O)C3CCN(C(=O)C4CCCC4)CC3)cc2)cc1)C1CC1	-1.6	0.3	-2	1.6%	16	3
Clc1ccc(Cn2ncc3c(N4CCCC4)ncnc32)cc1	2.5	0.3	-1	1.2%	16	0
Cn1c2ccccc2c2c(C(=O)NCCCN3CCCC3=O)cn(C3CCCCC3)c(=O)c21	-4.4	0.4	-38	0.6%	-10	-6
O=C(O)CC(CC(=O)N1CCN(C(=O)c2ccco2)CC1)c1ccccc1 (stereo not given)	-8.5	-0.1	-17	-0.1%	2	3
O=Cc1cn(CCOc2ccccc2)c2ccccc12	0.4	/	-7	-1.1%	/	3
CC(C)C(=O)NC(=S)Nc1c(Cl)ccc2nsnc12	-5.9	0.2	-10	18%	32	2
O=c1[nH]nc(N2CCOCC2)c(=O)[nH]1	-4.7	/	0	0.9%	/	3
NC(=O)C1CCN(C(=O)C2CC(=O)N(Cc3ccccc3)C2)CC1 (stereo not given)	-2.5	0.3	-2	0.8%	19	9
CC(=O)c1ccc2c(c1)OCCOCCOCCO2	-4.7	-0.7	-3	0.1%	8	-9
C#CCOCCOCCOCCNc1nc(N2CCN(C(=O)[C@H]([C@@H](C)O)n3cc(CCCCN)nn3)CC2)nc(N2CCN(C(=O)[C@H]([C@@H](C)CC)n3cc(CCCN=C(N)N)nn3)CC2)n1	-2.7	-0.9	-6	1.5%	5	5
CC[C@H](C)[C@@H]1NC(=O)c2cc([N+](=O)[O-])cc(F)c2NCCCC[C@@H](C(N)=O)NC(=O)[C@H](CCCCN)NC1=O	-0.2	-0.3	-3	1.4%	25	2
CCCn1cc([C@@H]2C[C@H]3CN(Cc4cccc(Cl)c4)C(=O)[C@]34CCCN24)c(C)n1	-2.1	0.9	-14	-0.8%	19	-2
O=C(NCCCn1ccnc1)c1cccc(S(=O)(=O)N2CCCCCC2)c1	-0.4	2.0	-7	-1.2%	1	-2
O=C(c1cnn2ccccc12)N1CCCc2ccccc21	-2.5	-0.4	-8	0.2%	6	9
Cc1ccc(C(CNC(=O)Nc2ccc(Cl)cc2)N2CCN(C)CC2)cc1 (stereo not given)	-4.9	0.3	-37	-1.2%	9	-1
COC(=O)COc1ccc(NC(=O)C(c2ccccc2)c2ccccc2)cc1	2.7	/	2	-1.0%	/	-3
O=C(/C=C/c1ccc(F)cc1)NC(=S)Nc1ccccc1C(=O)NC1CCCCC1	-3.7	0.7	7	5.7%	22	4
Cc1cccc(C)c1N=Cc1c(O)n(-c2nccs2)c(=O)c2ccccc12	-1.1	2.0	-18	-1.3%	-1	-4
O=C(c1ccc(CNS(=O)(=O)c2ccccc2)cc1)N1CCN(c2ccccn2)CC1	0.5	1.3	9	-1.3%	26	-2

One compound at a time, from the list above. Screens in order: D2 agonist, TRPML1 agonist, D2 PAM, PINK1 modulator, TRPML1 blocker, Six1-Eya2 blk
Shown for `c1nnc2c3c4c(sc3ncn12)CCC4` → -2.6, 0.4, -7, -8.7%[38.3 µM], -1, -5
Shown for `Cc1ccccc1C(=O)NCc1ccc2c(c1)CCN2C(=O)c1ccc(F)cc1` → /, -0.3, /, 0.5%, 9, /

Later entries.
SMILES	D2 agonist	TRPML1 agonist	D2 PAM	PINK1 modulator	TRPML1 blocker	Six1-Eya2 blk
Cc1ccc2[nH]c(C)c(CCNC(=O)c3cc4cc([N+](=O)[O-])ccc4oc3=O)c2c1	-3.9	0.6	-18	5.0%	14	-11
CC(Sc1nc2ccccc2c(=O)n1Cc1ccco1)C(=O)c1ccccc1 (stereo not given)	-1.5	-0.5	-13	-0.8%[38.3 µM]	5	-1
C/C(=C\c1ccc(N)cc1)c1nc2ccccc2[nH]1	1.4	/	-9	1.1%	/	-10
CCN(CC)C(=O)CN(C#N)c1nc(Cl)nc(N(C)C)n1	2.6	1.5	-3	2.5%	2	10
COc1ccc2c(c1)C=C(C(=O)NCc1cc(Br)ccc1OC)CO2	/	-0.8	/	-0.3%	7	/
CCCOc1ccc(C2c3c(-c4ccccc4O)n[nH]c3C(=O)N2CCc2ccccc2)cc1OCC (stereo not given)	/	1.5	/	?	15	/
CCn1c(C)nc2cc(C(=O)N/N=C(\C)c3ccccc3O)ccc21	-7.3	-0.6	-14	-0.3%	10	-17
C[C@@H]1NC(=O)c2cc([N+](=O)[O-])cc(F)c2NCCC[C@@H](C(N)=O)NC(=O)[C@H](CC(N)=O)NC1=O	-0.5	-0.1	-1	0.2%	-7	11
O=C(COC(=O)[C@H](Cc1c[nH]c2ccccc12)NC(=O)c1ccc(Cl)cc1)Nc1ccc2c(c1)OCO2	-1.4	-0.5	-8	?	9	-13
COc1ccc(C(=O)Nc2ccc(O)cc2C(=O)O)cc1	-1.4	2.7	4	-2.2%	0	-10
Cc1c(-c2ccccc2)nc(-c2ccccc2)[nH]c1=O	-5.8	0.4	-16	?	2	3
CC1=C(C(=O)Nc2ccc(F)cc2)C(c2cccc(C)c2)n2nc(CCCO)nc2N1 (stereo not given)	-2.3	0.2	-4	0.2%	11	0
Cc1ccc(OCCOC(=O)CCc2nc3ccccc3c(=O)[nH]2)cc1	-0.7	-0.6	-4	0.8%	15	-12
Cc1ccccc1NC(=O)CSc1nc2ccccc2c2nc(CCn3cncc3C)nn12	-2.9	0.7&0.0	-8	1.9%&-2.5%	14&-1	1
O=S(=O)(Cc1ccco1)Cc1nc(-c2ccc(Cl)cc2)cs1	-2.6	2.2	-7	-0.3%	23	0
COc1ccc(NC(=O)c2ocnc2C)cc1OC	0.4	1.1	-6	-4.2%[38.3 µM]	18	0
Cc1[nH]c2ccc(C(=O)N3CCN(c4ccccc4F)CC3)cc2c1C	/	-0.2	/	2.3%	-2	/
c1cncc(-c2nnc3n2N=C(c2cccs2)CS3)c1	-3.5	0.1	-14	-2.4%	-8	?
COc1ccc(C2=CC(=O)N(Nc3ccccc3)C2=O)cc1	-3.6	-0.1	-10	9.1%	-5	1
COc1cc(C#Cc2ccc3cc(C(C)(C)O)oc(=O)c3c2)cc(OC)c1	1.4	1.2	7	4.6%	57	-1
O=C(Nc1ccccc1)C1Cc2c(-c3cccc(F)c3)ccnc2O1 (stereo not given)	-3.4	-0.7	-2	2.9%	/	-3
CN(C)CCN(C(=O)c1ccc(Br)s1)c1nc2cc3c(cc2s1)OCCO3	-7.8	-0.5	-21	0.8%	17	3
Cc1ccc(CNC(=O)C2CCCN(C(=O)N(C)C)C2)cc1 (stereo not given)	-1.2	0.3	-8	0.2%[38.3 µM]	-6	1
COc1ccc(-c2nc(C#N)c(NC(C)C)o2)cc1	1.9	1.7	-3	/	6	-7
O=C1c2ccccc2C(=O)N1CCCCSc1nc2ccccc2c(=O)n1CCCN1CCOCC1	2.4	0.6	-5	1.2%	-13	11
CSCC[C@H](NC(=O)CCCn1nnc2ccccc2c1=O)C(=O)O	-3.4	/	-11	0.6%	/	4
COc1cc(NS(=O)(=O)c2ccc(NC(=S)NC(=O)c3sc4ccccc4c3Cl)cc2)nc(OC)n1	-9.1	-0.8	-5	0.7%	14	-15

Arranged by value in Six1-Eya2 blk (low to high): 6 from the list above
canonical_smiles,Six1-Eya2 blk
Cc1ccc(OCCOC(=O)CCc2nc3ccccc3c(=O)[nH]2)cc1,-12
COc1ccc(-c2nc(C#N)c(NC(C)C)o2)cc1,-7
COc1cc(C#Cc2ccc3cc(C(C)(C)O)oc(=O)c3c2)cc(OC)c1,-1
O=S(=O)(Cc1ccco1)Cc1nc(-c2ccc(Cl)cc2)cs1,0
COc1ccc(C2=CC(=O)N(Nc3ccccc3)C2=O)cc1,1
O=C1c2ccccc2C(=O)N1CCCCSc1nc2ccccc2c(=O)n1CCCN1CCOCC1,11
